High-throughput results: PubChem, National Center for Advancing Translational Sciences (NCATS)
Vaccinia Venus – vaccinia inhibition (Venus reporter) | Vaccinia virus Venus reporter expression, fluorescence | Potency, µM (top dose mostly 36.5 µM), for the others: at the top dose activity change, negative = inhibition, hits mostly inhibitors | 330,000 tested, 0.46% active | AID 720580; active means well fitted inhibition curve with a large enough effect; inconclusive means small, poorly fitted or top-dose-only effect; inactive means no such curve, though single readings can be large or run the other way; tested in A549 cells; also: nearly all actives have a fitted effect of over 30% in size; inactives centre near -10
VACV mCherry inh – vaccinia inhibition (mCherry reporter) | Vaccinia virus mCherry reporter infection, fluorescence; about a quarter of the inactives have no number | Potency, µM (top dose mostly 36.5 µM), inactives show at the top dose activity change, negative = inhibition, usual class: inhibitors | 310,000 tested, 0.63% active; active = well fitted inhibition curve with a large enough effect; inconclusive = small, poorly fitted or top-dose-only effect; inactive = no such curve, though single readings can be large or run the other way; tested in A549 cells; also: nearly all actives have a fitted effect of over 35% in size; inactives centre near -10
* marks the source's active call; other numbers are inactive results; i = inactive; ? = inconclusive; · = no result given; & = joins results of further samples; [ ] = remark or other dose. % is scaled to controls: 0 for no effect and ±100 for the full control effect; potency is read from the fitted curve at half-maximal effect. This is a random part of the collection; about 0.88% have a hit in one of these screens.

SMILES	Vaccinia Venus	VACV mCherry inh
N[C@H]1C(O)O[C@H](CO)[C@@H](O)[C@@H]1O (some centres undefined)	-12%&-10%	i
CCOc1ccc2oc(=O)cc(CN3CCN(Cc4ccc(F)cc4)CC3)c2c1	-17%	i
NC(=O)C1CCCN(C(=O)CN2C(=O)NC(c3ccccc3)(c3ccccc3)C2=O)C1 (centres undefined)	-5%	i
CCOC(=O)c1c(C)oc2c1c(C(c1ccncc1)N1CCOCC1)c(O)c1ccccc12 (centres undefined)	-9%	·
O=[N+]([O-])c1cc(C=NN2CCCCCC2)ccc1Cl	-9%	-13%
Cn1cc(Br)c(C(=O)NC2CCCCC2)n1	5%	·
CC(NC(=O)c1ccc(Cl)cc1)C(=O)NC1=NCCS1 (centres undefined)	-4%	i
CCN(CC)C(=O)N1CCC(NC(=O)c2ccc(C(C)(C)C)cc2)CC1	-13%	i
CC1CCCN(c2ccc(F)cc2N)C1 (centres undefined)	30%	-17%
CCCS(=O)(=O)NCc1c(C)ncc2c1CCN(C(=O)c1ccc3[nH]c4c(c3c1)CCCC4)C2	7%	-10%
CCn1c(SCC(=O)Nc2cc(C)on2)nc2sc3c(c2c1=O)CCCC3	-19%	?
O=C1CSc2ccccc2N1	-16%	-12%
O=C(COC(=O)c1cc([N+](=O)[O-])ccc1NCCO)Nc1cccnc1Cl	10%	-10%
CCOc1ccccc1NC(=O)Cn1c(=O)oc2cc(S(=O)(=O)NCc3ccccc3)ccc21	-25%	-18%
O=C(CCc1ccc(S(=O)(=O)N2CCOCC2)cc1)N/N=C/c1ccc(F)cc1F	-23%	i
COc1ccccc1OCCCC(=O)Nc1nnc(C2CCCO2)s1 (centres undefined)	-17%	-6%
COc1cccc(N2CCN(C(=O)c3ccc(CS(=O)Cc4ccccc4Cl)o3)CC2)c1 (centres undefined)	-22%	-9%
O=C(c1ccc(F)cc1)C1CCN(C(=O)c2ccccc2)CC1	-6%	-20%
CC(C)N(C(=O)CSc1ncnc2sc(-c3ccccc3)cc12)C(C)C	-14%	·
COc1ccc(-c2csc(-c3[nH]cnc3N)n2)cc1	2%	6%
CCc1ccc(-c2ccc3nnc(SCC(=O)Nc4cccc(C(C)=O)c4)n3n2)cc1	-19%	-9%
Cc1ccc(-n2[nH]c(C)c(C=Nc3ccc(S(=O)(=O)Nc4nccs4)cc3)c2=O)cc1C	-5%	-5%
COc1ccccc1/C=C/C(=O)Nc1ccc2c(c1)CCC2	-15%	-4%
Cn1c2c(c(=O)n(C)c1=O)CN(Cc1ccc3c(c1)OCO3)CN2	-12%	·
CCN(CC)S(=O)(=O)c1ccc2[nH]cc(C(=O)NCCc3ccccc3)c(=O)c2c1	?	-26%
COC(=O)C1=NN(C(=O)c2ccc(C)cc2)C(O)(c2ccc(Cl)cc2)C1 (centres undefined)	-7%	-18%
COCCCn1c(SCC(=O)Nc2cccc(C)n2)nnc1-c1ccco1	-8%	i
CC(=O)NS(=O)(=O)c1ccc(NC(=O)CSc2ccc(C)cc2)cc1	-8%	i
CSc1nsc(SC)c1C(=O)NCCNS(=O)(=O)c1ccc(C)cc1	-10%	·
NC(=O)c1ncc(C(F)(F)F)cc1Oc1cccc(C(F)(F)F)c1	-14%	·

2 records picked at random from those above:
SMILES	Vaccinia Venus	VACV mCherry inh
Cn1c2c(c(=O)n(C)c1=O)CN(Cc1ccc3c(c1)OCO3)CN2	-12%	·
COc1ccccc1/C=C/C(=O)Nc1ccc2c(c1)CCC2	-15%	-4%

Next section
SMILES	Vaccinia Venus	VACV mCherry inh
O=C(O)c1cccnc1	-13%&-8%	-13%&-17%
CC(C)(C)NNC(=S)Nc1cccc(C(F)(F)F)c1	-7%[7.34 µM]	?
COC(=O)[C@@]1(Cc2ccc(OC)cc2)[C@@H]2C(=CC(=O)[C@H]2CC(=O)C(=O)N2CCCC2)CN1C(=O)c1ccccc1	-20%	?
CC1(C(=O)NS(=O)(=O)c2cccc(C#N)c2)CCN1C(=O)c1ccco1 (centres undefined)	2%	i
C=CCNC(=O)/C(C#N)=C/c1ccc2c(c1)OCCO2	-8%	2%
COc1ccccc1OC(C)C(=O)N1CC(=O)Nc2ccccc21 (centres undefined)	8%	-1%
Nc1ccc2[nH]c(=S)[nH]c2c1	12%	?
CC1SC(C)C(=O)N(CC(=O)NC2CCCCC2)C1=O (centres undefined)	0%	-4%
O=C(C1CC(=O)N(c2ccccc2)C1)N1CCN(c2ccccc2)CC1 (centres undefined)	-10%	-11%
COc1ccc(-c2cc(C(=O)Nc3cccc(O)c3)on2)cc1OC	-4%	-9%
Cc1cc(C)c(S(=O)(=O)N2CCOCC2)c(C)c1N(C)S(=O)(=O)c1ccccc1	-6%	-18%
COCc1c(C(=O)NC2CCCC2)cnn1-c1nccc(-c2cccs2)n1	-8%	i
O=c1c(-c2cc(-c3ccc(F)cc3)nc3c2COc2ccc(Cl)cc2-3)coc2ccc(F)cc12	-3%[7.34 µM]	-14%[7.34 µM]
CCOC(=O)NC(Nc1sc2c(c1C(N)=O)CCCC2)(C(=O)OCC)C(F)(F)F (centres undefined)	-4%	-11%
O=C(NCc1ccc(F)cc1)C1CC(=O)N(CCc2ccccc2)C1 (centres undefined)	-11%	-9%[1.46 µM]
Cc1nc2c(c(C)nn2C(C)(C)C)c(C)c1CCC(=O)Nc1ccc(Br)cc1Br	-3%	-17%
Cc1cc(-c2n[nH]c(=S)n2Cc2ccccc2)cs1	-9%	-21%
c1ccc(Nc2ncnc3ccc(-c4cccnc4)cc23)cc1	-8%	-12%
O=C(/C=C\c1ccc2c(c1)OCO2)CC1(O)C(=O)Nc2ccccc21 (centres undefined)	-4%	?
COc1ccc(-c2csc(NC(=O)Cc3cc(OC)c(OC)c(OC)c3)n2)cc1OC	-25%	-23%
Cc1ccc(OCc2nc(C#N)c(N3CCCCC3)o2)cc1	3%[7.34 µM]	-23%[7.34 µM]
CCCCOC(=O)CSc1nnc(-c2ccc(Cl)cc2Cl)o1	-7%	·
CCC1(C2CCN(Cc3ccccn3)CC2)NC(=O)N(CC2COc3ccccc3O2)C1=O (centres undefined)	3%	-4%
C=CCn1c(O)c(C(C)=Nc2ccc(C(=O)O)cc2)c(=O)[nH]c1=O	-4%	i
O=C1c2ccccc2S(=O)(=O)c2cc(C(=O)N(c3ccccn3)c3ccccn3)ccc21	-7%	i
CC(C)Oc1cccc(NC(=O)C2(C)CCCN(C)C2)c1 (centres undefined)	12%	-15%
Cc1ccc(S(=O)(=O)N2CCN(c3nc(-c4cccs4)nc4nc[nH]c34)CC2)cc1	-10%	i
O=C(Nc1ccc(OCc2cc(=O)n3c4c(sc3n2)CCCC4)cc1)c1ccc(F)cc1	-3%	4%
Cc1cccc(NC(=O)CNC(=O)c2cc(C3CC3)nn2-c2ccccc2)c1C	-28%	-10%
C=CCN(CC=C)S(=O)(=O)c1ccc2nc(NC(=O)C3CCCO3)sc2c1 (centres undefined)	-24%	?
Cc1ccc(C)c(N2CCN(c3nc4ccc(Cl)cc4n4cnnc34)CC2)c1	?	?
CCOC(=O)CC(=O)CSc1nc2ccc(C)cc2cc1C#N	-3%	-18%
C=C[C@@]1(C)CCC(/C(C)=C/C=C/C(C)(C)O)C[C@@H]1C(=C)C (some centres undefined)	-20%	i
Clc1ccc(-n2nnc(-c3cccnc3Cl)n2)cn1	-20%	?
S=C(Nc1ccc(-c2nc3ccccc3[nH]2)cc1)Nc1cccnc1	3%	-6%
COc1ccc(OC)c(CCNC(=O)CCn2c(=O)c3cccn3c3cccnc32)c1	-6%	-14%
CCN(C(=O)C12CC3CC(CC(C3)C1)C2)C1CCS(=O)(=O)C1 (centres undefined)	-12%	-16%
CC(Sc1nc(-c2ccccc2)cs1)C(=O)Nc1ccc(Cl)cn1 (centres undefined)	-15%	-10%
O=C1CCC2CCCCC2(O)O1 (centres undefined)	1%	·
C[C@@H]1C=C(C(=O)N2CCN(Cc3ccccc3)CC2)O[C@H](OCc2ccc(CO)cc2)C1	-15%	i

Whole records, looked up by structure. Order of values: Vaccinia Venus	VACV mCherry inh
O=C1CCC2CCCCC2(O)O1 (centres undefined) is entered as 1%	·
Clc1ccc(-n2nnc(-c3cccnc3Cl)n2)cn1 is entered as -20%	?
CC(Sc1nc(-c2ccccc2)cs1)C(=O)Nc1ccc(Cl)cn1 (centres undefined) is entered as -15%	-10%
CCOC(=O)CC(=O)CSc1nc2ccc(C)cc2cc1C#N is entered as -3%	-18%

The list continues:
SMILES	Vaccinia Venus	VACV mCherry inh
COc1ccc(CNc2cccc(F)c2)cc1Br	-6%	-13%
Cc1csc(NC(=O)c2ccccc2O)n1	-16%	·
Cc1ccc(OC(=O)N(C)C[C@H]2OCc3cnnn3CCCC(=O)N([C@H](C)CO)C[C@@H]2C)cc1	-22%	i
CCc1ccc(Cn2c(CNS(=O)(=O)c3ccc(C)c(C)c3)nc3cccnc32)cc1	-11%	-14%
Cc1ccc(NC(=O)C2C3/C=C\CCCCC32)cc1C (centres undefined)	-16%	-12%
CN1CCC(N(C)C(=S)Nc2ccc(F)cc2)CC1	-7%	-10%
COc1ccc(N2C(=O)CC(C#N)=C2N)cc1	-7%	i
Oc1c(C(c2ccccn2)N2CCC(Cc3ccccc3)CC2)cc(Cl)c2cccnc12 (centres undefined)	?	?
O=C(NCCN1CCOCC1)Nc1ccc(Cl)cc1Cl	-7%	-19%
CCN(CC(=O)NCc1ccc(Cl)cc1)Cc1cc(=O)n2ccsc2n1	-14%	-15%
CC1CCCCN1CC(=O)NCc1ccc2c(c1)OCO2 (centres undefined)	-5%	-12%
O=C(N/C(=C\c1cccc([N+](=O)[O-])c1)C(=O)N(CCO)CCO)c1ccco1	-4%	0%
Cc1cccc(C)c1N1CCN(c2ccc3nnc(C(F)(F)F)n3n2)CC1	-25%	·
CC1=C(C)CC(C(=O)Nc2nc(-c3ccc(C)cc3C)c(C)s2)C(C(=O)O)C1 (centres undefined)	2%	i
CCc1ccc(NC(=O)CCC(=O)c2ccc(C)cc2)cc1	?	-1%
C=COCCNC(=O)Nc1ccc(Cl)cc1Cl	-12%	-17%[1.46 µM]
CC(=O)c1cccc(OCC(=O)Nc2cc(S(=O)(=O)N3CCOCC3)ccc2N2CCCC2)c1	-4%	i
O=C(O)c1cccc(C(=O)c2cccc3ccccc23)c1	-8%	-9%
Cn1cccc1CN1CCC[C@]2(N[C@H](c3ccccc3)[C@@H]3C(=O)N(Cc4ccccc4)C(=O)[C@@H]32)C1=O	-18%	-19%
Cc1csc(N2CCN(c3cc4nc(-c5ccncc5)[nH]c4cc3Cl)CC2)n1	-2%	-11%
COc1ccc(C2c3cccn3CCN2S(=O)(=O)c2ccccc2[N+](=O)[O-])cc1OC (centres undefined)	0%	-12%
O=C(Nc1ccccc1C(=O)OC1CCOC1=O)c1ccco1 (centres undefined)	-12%	-4%
COc1ccc(C2CC(c3ccc(OC)cc3)n3nc(NC(=O)c4ccco4)nc3N2)cc1 (centres undefined)	-19%	-29%
O=C(NC1CCCC1)c1ccc2c(c1)N(Cc1c(F)cccc1Cl)C(=O)c1ccccc1S2	-22%	-14%
Cc1cccc(C(=O)OCC(=O)NCCNC(=O)COC(=O)c2cccc(C)c2C)c1C	-5%	i
C[C@@H]1CN([C@H](C)CO)C(=O)CCCn2nncc2CO[C@H]1CN(C)CC1CC1	8%	8%
CCC(C(=O)N1CCN(c2cc(Cl)ccc2C)CC1)n1nc(C)n2c(cc3occc32)c1=O (centres undefined)	-24%	-19%
Cc1ccc2c(=O)cc(C(=O)Nc3c(C(=O)c4ccccc4)oc4ccccc34)oc2c1	5%	-13%
COc1ccc(-c2csc(N3CCSCC3)n2)cc1	-3%	i
CN(C)S(=O)(=O)c1ccc(N2CCCC2)c(C(=O)Nc2nc(-c3ccc(F)cc3)cs2)c1	-10%	-11%

Among those listed so far, 3 have a tert-butyl group:
SMILES	Vaccinia Venus	VACV mCherry inh
CCN(CC)C(=O)N1CCC(NC(=O)c2ccc(C(C)(C)C)cc2)CC1	-13%	i
CC(C)(C)NNC(=S)Nc1cccc(C(F)(F)F)c1	-7%[7.34 µM]	?
Cc1nc2c(c(C)nn2C(C)(C)C)c(C)c1CCC(=O)Nc1ccc(Br)cc1Br	-3%	-17%

Going on with the list.
SMILES	Vaccinia Venus	VACV mCherry inh
COC(=O)C(CC(C)C)NC(=O)c1ccc([N+](=O)[O-])cc1 (centres undefined)	-10%	i
C/C(=N\O)C1(C)N(O)C(C)(C)C(c2ccc(F)cc2)=[N+]1[O-] (centres undefined)	-9%	·
CC(C)c1ccc(NC(=O)C2CC(=O)N(C3CCCC3)C2)cc1 (centres undefined)	-8%	4%
O=C(O)c1ccc(S(=O)(=O)Nc2ccc(O)c(Sc3nc4ccccc4s3)c2)cc1	-2%	14%
Cc1ccc2ncnc(Nc3cccc(C(=O)O)c3)c2c1	2%	-3%
CCc1ccc(NC(=O)C(C)OC(=O)c2cccc(S(=O)(=O)N3CCc4ccccc4C3)c2)cc1 (centres undefined)	-15%	0%
Cc1cc(C(=O)Nc2nc(C)c(C(=O)N(C)C)s2)ccc1[N+](=O)[O-]	-4%	-17%
O=C(CSc1nnc(-c2cccs2)n1Cc1ccccc1)N1CCc2ccccc2C1	-13%	·
Cc1ccc(Cl)cc1NC(=S)N(Cc1ccco1)C(C)c1cccs1 (centres undefined)	-18%	?
CCc1nc2ccc(C(=O)NCCc3c[nH]c4ccccc34)cn2c1N(C)Cc1ccc(N(C)C)cc1	-12%	?
